# Kir21 block: inhibitors of mouse Kir2.1 inward-rectifier potassium channel; 0.85% of 310,000 active; AID 1672, 2009; B-score at 10 µM; HEK293-Kir2.1, FluxOR thallium flux fluorescence; hits give low values; Inward rectifier potassium channel 2 (Mus musculus), P35561;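 active means fluorescence ratio B-score at or below minus 3 SD of library scores, with starting-brightness B-score within 2 SD, cut at about -4.2 in these data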;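 further: channel flux triggered by added potassium and thallium sulfate stimulus; B-score of peak minus minimum fluorescence over baseline after thallium stimulus; more negative B-score means stronger Kir2.1 block with less thallium influx; some compounds called inactive have numbers as strong as hits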
# Target sequence (P35561 whole entry, looked up): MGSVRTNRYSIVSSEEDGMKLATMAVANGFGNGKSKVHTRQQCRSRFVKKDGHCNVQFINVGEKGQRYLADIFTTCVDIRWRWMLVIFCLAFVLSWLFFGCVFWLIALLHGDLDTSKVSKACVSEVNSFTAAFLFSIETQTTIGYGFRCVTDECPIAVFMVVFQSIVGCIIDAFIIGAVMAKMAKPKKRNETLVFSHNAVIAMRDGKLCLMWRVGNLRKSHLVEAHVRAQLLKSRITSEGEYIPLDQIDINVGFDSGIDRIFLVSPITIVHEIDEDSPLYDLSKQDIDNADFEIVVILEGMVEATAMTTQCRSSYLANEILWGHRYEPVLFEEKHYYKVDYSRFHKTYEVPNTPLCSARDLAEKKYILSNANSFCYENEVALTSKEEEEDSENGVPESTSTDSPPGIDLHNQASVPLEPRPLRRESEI
# Numbers without * were called inactive. The list is partial, and most or all hits are left out here.
SMILES,Kir21 block
COc1ccc(C(=O)Oc2cc(C)[nH]c(=O)c2[N+](=O)[O-])cc1,1.1
COCCN(C(=O)CNC(=O)c1ccco1)C(C(=O)NC1CCCC1)c1ccccc1F (stereo not drawn),-0.14
CCOc1cc(CNCCO)ccc1OCC(=O)NC(C)(C)C,0.86
N#Cc1cccc(NC(=O)COC(=O)c2ccccc2C(=O)c2ccc(Cl)c([N+](=O)[O-])c2)c1,-2.4
Cc1cc(C)n(CCC(=O)N2CCN(S(=O)(=O)c3ccc(C)c(C)c3)CC2)n1,0.52
C/C(=N/NC(=O)c1ccco1)c1ccc(NC(=O)c2ccc(Br)o2)cc1,-0.52
On1cnnc1-c1ccccc1,-0.2
CCOc1ccccc1Nc1nnc(C)c(=O)[nH]1,1.9
COCCn1c(N)c(S(=O)(=O)c2cccs2)c2nc3ccccc3nc21,-0.05
O=C(CNC(=O)c1cc2c(s1)CCC2)Nc1ccccc1Br,1.3
CC(C)C(=O)N1CCC(n2nccc2NC(=O)CCOc2ccccc2)CC1,-0.02
CN(c1ccccc1)c1ccc(/C=c2\s/c(=C(/C#N)C(=O)C(C)(C)C)n(Cc3ccco3)c2=O)cc1,-2.6
Cc1cc(NC(=O)C2CC(c3ccc(F)cc3)=NO2)n(-c2ccccc2)n1 (stereo not drawn),-0.05
COC(=O)c1cc(S(=O)(=O)N(C)C2CCCCC2)cn1C,-0.4
COCCNC(C)C(=O)Nc1ccc(Br)cc1 (stereo not drawn),-0.08
O=C(/C=C/c1ccc2c(c1)OCCCO2)c1ccc2ccccc2c1O,0.57
N#CC1=C(N)N2C(=C(C#N)C13CCN(Cc1ccccc1)CC3)Nc1ccccc12,0.39
Cc1ccc(OCc2cc(C(=O)NCCn3cccn3)no2)cc1C,1.3
COc1ccc(-c2nc(CS(=O)CC(=O)NCC3CCCO3)c(C)o2)cc1 (stereo not drawn),-0.67
O=C(Nc1cccc(Cl)c1)Nc1nc(-c2ccccc2)cs1,1.4
Cc1ccc(Cn2c(CN3CCOCC3)nc3c2c(=O)[nH]c(=O)n3C)cc1,-0.47
O=c1nc(Nc2cccc(Cl)c2)oc2cc(Cl)oc(=O)c12,2.1
COc1ccc(C(=O)/C=C/Nc2c(C)n(C)n(-c3ccccc3)c2=O)cc1OC,-2.5
O=C(c1ccco1)N1CCn2c1nc1ccccc12,0.07

# An excerpt from above in order of the Kir21 block value, descending.
SMILES,Kir21 block
O=c1nc(Nc2cccc(Cl)c2)oc2cc(Cl)oc(=O)c12,2.1
Cc1ccc(OCc2cc(C(=O)NCCn3cccn3)no2)cc1C,1.3
N#CC1=C(N)N2C(=C(C#N)C13CCN(Cc1ccccc1)CC3)Nc1ccccc12,0.39
COCCNC(C)C(=O)Nc1ccc(Br)cc1 (stereo not drawn),-0.08
COC(=O)c1cc(S(=O)(=O)N(C)C2CCCCC2)cn1C,-0.4

# The list continues.
SMILES,Kir21 block
NC(=O)COC(=O)CNC(=O)c1sc2ccccc2c1Cl,-0.29
COc1ccc(CC(=O)OCN2C(=O)c3ccccc3C2=O)cc1,0.05
COc1ccc2[nH]cc(C(=O)CCl)c2c1,0.55
COc1ccc(N/C(=N\c2nc(C)cc(C)n2)NC(C)=O)cc1OC,-0.45
Cc1ccc(-n2c(N)c(C(=O)N3CCOCC3)sc2=S)cc1,0.04
CN(C)c1ccc(/C=N/N2C(=S)SC(C)(C)C2N(O)C(=O)Nc2ccc([N+](=O)[O-])cc2)cc1 (stereo not drawn),-0.77
N#Cc1nc(-c2ccco2)oc1N1CCc2ccccc2C1,-1.2
O=C(c1ccc2c(Cl)c3c(nc2c1)CCCC3)N1CCC(N2CCCCC2)CC1,1.7
CCn1c(SCC(=O)c2ccc3ccccc3c2)nnc1-c1ccco1,-2.2
O=C(Cc1ccc(-n2c(=O)c3ccccc3n(Cc3ccccc3Cl)c2=O)cc1)NCC1CCCO1 (stereo not drawn),1.3
CC(C)Oc1ccc(Oc2ccc(C(F)(F)F)cn2)cc1,-2.3
C/C(=N\Nc1cccc(C(=O)O)c1)c1ccc2c(c1)Nc1ccccc1S2,-0.02
CCOc1ccc(N/C(C)=C/C(=O)c2ccc(C)o2)cc1,0.51
COc1ccc(C2C(C#N)=C(N)Oc3c2c(-c2ccccc2)nn3-c2ccccc2)c(OC)c1OC (stereo not drawn),-1.8
CN(C)c1ccc(C(CNC(=O)c2ccccc2F)c2c[nH]c3ccccc23)cc1 (stereo not drawn),-1
COc1ccc2cc(C(c3nnnn3C3CCCC3)N3CCc4ccccc4C3)c(=O)[nH]c2c1 (stereo not drawn),1.1
COc1c(Br)cc(Br)cc1C(=O)O,1.2
O=C(NC1CCCCC1)C1(S(=O)(=O)c2ccc(Cl)cc2)CC1,-2.4
Nc1c(C(=O)NCCc2ccccc2)sc2nc(N3CCOCC3)c3c(c12)CCCC3,0
O=C(NC1CC1)C1=C[C@H](c2c[nH]c3ccccc23)C[C@H](OCc2ccc(CO)cc2)O1,0.26
COc1ccc2[nH]c(=O)c(CN(CCc3ccccc3)Cc3nnnn3CC3CCCO3)cc2c1 (stereo not drawn),-0.96
CCOC(=O)N1CCN(C(=O)C2CCN(S(C)(=O)=O)CC2)CC1,-1.4
COc1ccccc1C(=O)Nc1ccc(-c2nnn(CC(=O)N3CCOCC3)n2)cc1,0.1
O=S(=O)(c1ccc2ccccc2c1)N(CC(O)CN1CCOCC1)c1ccccc1 (stereo not drawn),-1.4

# Seven compounds already listed, arranged by number of heavy atoms, lowest first:
SMILES,Kir21 block
COc1c(Br)cc(Br)cc1C(=O)O,1.2
O=C(NC1CCCCC1)C1(S(=O)(=O)c2ccc(Cl)cc2)CC1,-2.4
CCOC(=O)N1CCN(C(=O)C2CCN(S(C)(=O)=O)CC2)CC1,-1.4
CN(C)c1ccc(C(CNC(=O)c2ccccc2F)c2c[nH]c3ccccc23)cc1 (stereo not drawn),-1
COc1ccccc1C(=O)Nc1ccc(-c2nnn(CC(=O)N3CCOCC3)n2)cc1,0.1
COc1ccc2cc(C(c3nnnn3C3CCCC3)N3CCc4ccccc4C3)c(=O)[nH]c2c1 (stereo not drawn),1.1
COc1ccc2[nH]c(=O)c(CN(CCc3ccccc3)Cc3nnnn3CC3CCCO3)cc2c1 (stereo not drawn),-0.96

# (list continues)
SMILES,Kir21 block
CC(C)Cc1cc(CN2CCC(CO)(Cc3cccc(C(F)(F)F)c3)CC2)[nH]n1,1.4
O=[N+]([O-])c1ccc(F)cc1Oc1nc(-c2cccnc2)nc2ccccc12,0.09
O=C(CCCN=C1NS(=O)(=O)c2ccccc21)OCc1ccccc1,0.12
CC(C)(C)C1CCc2onc(C(=O)O)c2C1 (stereo not drawn),1
CC(C)C(=O)Nc1cccc(NC(=O)c2cccc([N+](=O)[O-])c2)c1,0.34
COc1ccc(/C=C/C(=O)Nc2ccc(C34CC5CC(CC(O)(C5)C3)C4)cc2)cc1OC,-1.6
CCN(CC)C(=S)Nc1c(C)n(C)n(-c2ccccc2)c1=O,0.78
CCOc1ccc(C(=O)NCC(=O)OCC(=O)N2CCCC2)cc1,0.46
CC(=O)N1CCc2cc(Br)cc(S(=O)(=O)N3CCCCC3)c21,0.44
CCOC(=O)N1CCN(Cc2nc(-c3cccc(C)c3)no2)CC1,-1.1
CCOC(=O)C(C)n1cnc2c(nnn2-c2ccc(OC)cc2)c1=O (stereo not drawn),0.52
Cc1cc(C)c(C)c(S(=O)(=O)NCCCN2CCOCC2)c1C,-0.54
Cc1[nH]c(C)c(S(=O)(=O)Nc2ccc(F)cc2Cl)c1C(=O)N1CCCC1,0.34
Cc1c(NC(=O)C(C)Oc2cccc(Cl)c2)c(=O)n(-c2ccccc2)n1C (stereo not drawn),-0.05
CC(C)c1nnc(NC(=O)CCC(=O)NC2CCCCCC2)s1,1.8
CN(C(=O)COC(=O)CNC(=O)c1ccccc1Cl)c1ccccc1,-1.5
COC(=O)CN=Cc1c(O)n(-c2ccc(Cl)cn2)c(=O)c2ccccc12,-0.04
Clc1ccc(-c2cn3cccnc3n2)cc1Cl,0.22
COc1cc(C(=O)Nc2c(C)cc(C)cc2C)c([N+](=O)[O-])cc1OC,2
Cc1ccc(C(=O)Nc2ccncc2)c(Cl)c1,-1.9
FC(F)(F)c1cccc(-c2nc(COc3ccc(Cl)cc3Cl)no2)c1,1.1
Nc1cc(N)nc(SCc2cccc(F)c2)n1,0.09
Cc1ccc(-c2nnc(C)c(N3CCCC3)n2)cc1,0.41
Cc1nnsc1-c1c(C(=O)N2CCOCC2)c(C)nn1-c1ccccc1,-1.6
COc1cc2c(cc1NC(=O)Nc1ccc(F)cc1)oc1ccccc12,0.89
COC(=O)C(CC(=O)c1cccc(OC)c1)c1ccc(F)cc1 (stereo not drawn),-0.04
CCOC(=O)C1(CCOc2ccccc2)CCN(Cc2ccc(CO)o2)CC1,0.07
Nc1ccc2oc(-c3cccs3)nc2c1,-0.06
Fc1ccc(Cn2nnnc2C(c2cccs2)N2CCCCCC2)cc1 (stereo not drawn),-1.6
Cc1sc2nc(CN3CCCCC3)nc(Nc3ccc4c(c3)OCCO4)c2c1C,0.36
CCCc1c(C(=O)O)cnn1-c1ccc(Cl)cc1,0.33
CC1(c2nnc(Cc3ccccc3)o2)CC(c2cccc([N+](=O)[O-])c2)=NO1 (stereo not drawn),0.91
O=C(CN(C(=O)CCC(=O)Nc1nccs1)c1cccc(F)c1)NCC1CCCO1 (stereo not drawn),-0.11
O=[N+]([O-])c1ccc(Cl)c(S(=O)(=O)NCC2CCCO2)c1 (stereo not drawn),-1.6
O=C(O)C(Cc1c[nH]c2ccccc12)N1Cc2ccccc2C1=O (stereo not drawn),0.05
Cc1nn(-c2ccccc2)c(C)c1NC(=O)COC(=O)C1CC(=O)N(CCc2ccccc2)C1 (stereo not drawn),2.6
C=CCn1c(SCC(=O)N2CCc3ccccc3C2)nc2sc(C)c(C)c2c1=O,-0.29
COc1ccc(C2C3=C(CC(C)(C)CC3=O)Nc3c2c(=O)n(C)c(=O)n3C)cc1OC (stereo not drawn),-1.2
Cn1c(=O)c2c(nc(SCC(=O)NCC3CCCO3)n2C)n(C)c1=O (stereo not drawn),1.1
COc1ccc(CN2CC(=O)N(c3ccccc3OC)C2=S)cc1OC,0.99
COc1cc(C(C)=O)ccc1OCC(O)Cn1nc(C)c(C(C)=O)c1C (stereo not drawn),-0.53
Cc1cc(C(=O)N/N=C/c2ccncc2)c2ccccc2n1,0.12
COCC(=O)N1CCC(Oc2ccc(C(=O)N[C@H](C(=O)OC)C(C)C)cc2)CC1,0
Nc1cc(=O)[nH]c(SCC(=O)NNC(=O)Cc2ccccc2)n1,-1.2
COc1ccc(C(=O)Nc2cccc3c2CCCC3)cc1,-0.58
CC(=O)Cn1c(CN2CCCC2)nc2ccccc2c1=O,0.75
COCCCNC(=S)N/N=C/c1ccc2c(c1)OCO2,0.68
Nc1nc(NCC(=O)O)nc(NCc2ccccc2)c1[N+](=O)[O-],-1.6
CCOC(=O)c1c(NC(=O)CN2C(=O)NC3(CCCCC3)C2=O)sc(C)c1-c1ccc(C)cc1,1.2
COc1ccc(-c2sc(NC(=O)c3ccc(C)cc3)nc2-c2ccc([N+](=O)[O-])cc2)cc1,-0.85
CCOC(=O)C1CCN(C(=O)c2ccccc2NS(=O)(=O)c2ccc(F)c(F)c2)CC1,0
Cc1ccc(CNC(=O)C2CCCN(S(C)(=O)=O)C2)cc1 (stereo not drawn),-0.87
CC(C(=O)Nc1cccnc1)N1C(=O)C2C3C=CC(C3)C2C1=O (stereo not drawn),-0.04
COC(=O)c1cc(OC)c(OC)cc1N1C(=O)CCCC1=O,-0.27
CCOCCCN1C(=O)C(O)=C(C(C)=O)C1c1cccs1 (stereo not drawn),-0.32
CC(=O)Nc1cccc(-c2nnc(SCC(=O)n3c4c(c5ccccc53)CCCC4)n2C)c1,0.02
Cc1c(C(=O)OCC(=O)N(C)C2CCS(=O)(=O)C2)oc2ccc(Br)cc12 (stereo not drawn),0.12
Cc1ncc([N+](=O)[O-])n1CCOC(=O)C12CC3CC(CC(C3)C1)C2,0.08
CCOc1ccc(CN2CCN(Cc3cnc(-c4ccccc4)s3)CC2CCO)cc1 (stereo not drawn),-1.6
CCCC1c2ccc(C)n2CCN1C(=O)Nc1ccc(F)cc1 (stereo not drawn),0.22
# (cont.)
SMILES,Kir21 block
CCOc1ccc2nc(NC(=O)c3ccc(C)o3)sc2c1,1.3
CSCCC(NC(=O)c1ccccc1Br)C(=O)NCCCn1nc(C)cc1C (stereo not drawn),0.29
CCSc1nnc(NC(=O)C2CC2c2ccccc2)s1 (stereo not drawn),-0.01
Cc1ccc(S(=O)(=O)Nc2cc(C(=O)NCCN(C)C)ccc2N2CCCC2)cc1,0.78
COC(=O)c1ccc(NC(=O)C23CC4CC(C2)CC(n2cnc(Cl)n2)(C4)C3)cc1,0.87
Cc1oc2cc(O)cc(C)c2c(=O)c1-c1cnn(-c2ccccc2)c1,0
CC1(C)CC(=O)c2cnc3c(C#N)cnn3c2C1,-0.99
Cc1nnn(C23CC4CC(CC(CC(=O)Nc5ccc(C)c(C)c5)(C4)C2)C3)n1,0.38
O=C(C1CCN(c2nnc(-n3cccc3)s2)CC1)N1CCc2ccccc2C1,0.39
Cc1ccc2c(c1)c1nc3ccccc3nc1n2CCN1CCOCC1,1.3
CC(Oc1ccc(C(=O)NCCc2ccccc2)cc1)C(=O)O (stereo not drawn),-0.31
Cc1cnc(NC(=O)CCN2C(=O)C3CCCCC3C2=O)s1 (stereo not drawn),-0.52
Cc1c(CCC(=O)N2CCC(C(=O)NCCCCCC(=O)O)CC2)c(=O)oc2cc3oc4c(c3cc12)CCCC4,-0.14
O=C(CSC1CC(=O)N(CCc2ccccc2)C1=O)Nc1ccc(Cl)cc1 (stereo not drawn),0.23
COc1ccc(CCNC(=O)c2c(-c3ccccc3Cl)noc2C)cc1,-3.4
COc1cc(/C=C/c2cccc[n+]2C)ccc1OCC(=O)Nc1ccccc1,-0.14

# Structures above containing a CF3 group (three):
SMILES,Kir21 block
CC(C)Oc1ccc(Oc2ccc(C(F)(F)F)cn2)cc1,-2.3
CC(C)Cc1cc(CN2CCC(CO)(Cc3cccc(C(F)(F)F)c3)CC2)[nH]n1,1.4
FC(F)(F)c1cccc(-c2nc(COc3ccc(Cl)cc3Cl)no2)c1,1.1

# From PubChem
